# Source: PubChem BioAssay (Johns Hopkins Ion Channel Center)
# KCNQ2 block: KCNQ2 potassium channel inhibitors, primary screen, cell-based, CHO-K1, FluxOR thallium flux, B-score (AID 2156); O88943; 20 min; active compounds read low; only compounds with negative scores are shown here; some inactives read as strong as hits; B-score at 10 µM; 310,000 tested, 1.1% active;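 active means fluorescence ratio B-score at most minus 3 library SDs, with starting brightness B-score within 2 library SDs, cut at about -5.5 in these data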
# Target sequence (O88943 whole entry, looked up): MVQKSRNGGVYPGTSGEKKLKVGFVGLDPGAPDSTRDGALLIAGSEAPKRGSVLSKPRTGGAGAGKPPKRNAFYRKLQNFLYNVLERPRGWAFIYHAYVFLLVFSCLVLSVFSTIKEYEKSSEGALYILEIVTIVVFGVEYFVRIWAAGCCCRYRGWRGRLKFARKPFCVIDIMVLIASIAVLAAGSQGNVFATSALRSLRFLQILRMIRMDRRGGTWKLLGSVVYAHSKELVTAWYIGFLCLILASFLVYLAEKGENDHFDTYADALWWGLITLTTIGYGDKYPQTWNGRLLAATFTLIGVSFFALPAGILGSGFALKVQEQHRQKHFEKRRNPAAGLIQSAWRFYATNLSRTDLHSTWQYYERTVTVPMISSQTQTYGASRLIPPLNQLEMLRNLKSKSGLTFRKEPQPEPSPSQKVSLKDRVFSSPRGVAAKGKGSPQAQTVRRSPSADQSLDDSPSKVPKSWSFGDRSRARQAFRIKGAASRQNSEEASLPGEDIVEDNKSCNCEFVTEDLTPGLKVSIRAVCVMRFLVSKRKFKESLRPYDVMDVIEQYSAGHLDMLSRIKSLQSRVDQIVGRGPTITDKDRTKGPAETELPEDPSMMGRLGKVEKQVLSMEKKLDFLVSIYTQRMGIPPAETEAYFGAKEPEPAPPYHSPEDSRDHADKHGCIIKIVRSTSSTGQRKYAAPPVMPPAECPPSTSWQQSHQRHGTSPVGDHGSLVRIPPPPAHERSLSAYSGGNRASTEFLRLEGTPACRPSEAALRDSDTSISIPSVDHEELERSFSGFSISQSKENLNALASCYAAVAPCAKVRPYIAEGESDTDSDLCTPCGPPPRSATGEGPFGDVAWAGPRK
# KCNQ2 block baseline: second read-out of KCNQ2 block, no call of its own (marks repeat the call); B-score; measured here: initial fluorescence intensity artifact check;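 brightness before thallium and not channel activity; 0 = typical well and far values either way flag optical interference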
# Numbers without * were called inactive; i = inactive. Some of the compounds tested; the hit share may differ from the screen's.
Molecule	KCNQ2 block	KCNQ2 block baseline
C#Cc1ccc([C@H]2C=C(C(=O)N3CCN(Cc4ccc5c(c4)OCO5)CC3)O[C@@H](OCc3ccc(CO)cc3)C2)cc1	i	-0.92
CC(c1nnc(SCC(=O)N2CCc3ccccc32)n1-c1ccc(Cl)cc1)N(C)C (stereo not drawn)	i	0.25
Cc1ccc(-n2nc3c(c2NC(=O)c2ccccc2Br)CS(=O)C3)cc1 (stereo not drawn)	i	-1.2
Cc1ccc2nc(NC(=O)CCNS(=O)(=O)c3ccc(Br)s3)sc2c1	i	3.5
COc1ccc(-c2cn[nH]c2-c2ccc(OCc3ccccc3F)cc2O)cc1OC	i	-2.1
Cc1cc(C)n(/N=C/c2ccccc2)c(=O)c1C#N	i	-0.05
CN1CCC(=NNC(=O)c2cn(-c3ccccc3)nc2-c2ccccc2)CC1	i	-1.5
COC(=O)c1ccc(C(=O)Nc2cc(Cl)ccc2Cl)cc1NC(=O)c1ccccc1C	i	-1.6
NC(=S)C(c1ccccc1)c1ncc(C(F)(F)F)cc1Cl (stereo not drawn)	i	0.51
CCC(C)NC(=O)c1cn(CC)c2cc(N3CCN(C(=O)c4ccco4)CC3)c(F)cc2c1=O (stereo not drawn)	i	-0.53
COc1ccc(C(=O)NC2CCCc3c2cnn3-c2cc(F)cc(F)c2)c(OC)c1OC (stereo not drawn)	i	-0.57
CC(=O)N1c2ccccc2N(Cc2ccc([N+](=O)[O-])cc2)C(=O)C1(C)C	i	0.65
Cc1cc([N+](=O)[O-])cc(C)c1OCC(=O)N/N=C/c1ccc(OC(=O)c2ccccc2)cc1	i	3.8
CC1=NN(C(=O)Cn2ccc([N+](=O)[O-])n2)C(O)(C(F)(F)F)C1 (stereo not drawn)	i	0.27
COc1ccc(N2CCN(C(CNC(=O)C(C)(C)C)c3ccco3)CC2)cc1 (stereo not drawn)	i	1.6
CCOC(=O)C(C)On1c(-c2ccccc2)nc2ccc([N+](=O)[O-])cc21 (stereo not drawn)	i	-0.33
O=C(COC(=O)CCCN1C(=O)c2cccc3cccc(c23)C1=O)Nc1cccc(Br)c1	i	0.38
COc1ccc(CN2CCOCC2)c(C)c1C	i	0.29
O=C(c1noc2c1CCCC2)N1CCC(CO)(Cc2ccccc2Cl)CC1	i	-0.31
O=C(O)COc1cccc(/C=C2/SC(=S)N(Cc3ccccc3)C2=O)c1	i	-0.76
O=C(CCC(=O)Nc1ccc(F)cc1)N/N=C/c1ccc(O)cc1O	i	-0.58
O=S(=O)(c1ccccc1)C1(S(=O)(=O)c2ccccc2)CCCC1	i	-0.67
S=C(Nc1ccccc1Cl)N1CCC(c2ccccc2)C1 (stereo not drawn)	i	-0.7
CCOC(=O)CC1C(=O)NCCN1c1nc2c(C)cccn2c(=O)c1/C=C1\SC(=S)N(C(C)CC)C1=O (stereo not drawn)	i	8.2
O=C(Nc1cccc(S(=O)(=O)NCc2ccco2)c1)c1cc(-c2ccccc2)nc2ccccc12	i	-0.55
Cc1ccc(-n2c(SCc3ccc(C(=O)O)cc3)nnc2-c2ccncc2)cc1	i	0.33
N#CNc1nc(O)cc(=O)[nH]1	i	-1.1
CCOC(=O)C1CCN(C(=S)Nc2ccc(Cl)cc2C)CC1	i	-1.1
CCc1ccccc1NC(=O)CCc1nc(-c2cccs2)no1	i	3.1
Cc1ccnn1CC(=O)N/N=C/c1ccco1	i	0.3
CC(C)(C)c1ccccc1NC(=S)NC1CCCC1	i	0.89
CC(=O)c1ccc(N(CC(=O)NC2CCCC2)C(=O)CCC(=O)Nc2cc(C)on2)cc1	i	1.4

# Among those listed so far, four have two or more sulfur atoms:
Molecule	KCNQ2 block	KCNQ2 block baseline
Cc1ccc2nc(NC(=O)CCNS(=O)(=O)c3ccc(Br)s3)sc2c1	i	3.5
O=C(O)COc1cccc(/C=C2/SC(=S)N(Cc3ccccc3)C2=O)c1	i	-0.76
O=S(=O)(c1ccccc1)C1(S(=O)(=O)c2ccccc2)CCCC1	i	-0.67
CCOC(=O)CC1C(=O)NCCN1c1nc2c(C)cccn2c(=O)c1/C=C1\SC(=S)N(C(C)CC)C1=O (stereo not drawn)	i	8.2

# Continuation.
Molecule	KCNQ2 block	KCNQ2 block baseline
CCOC(=O)c1ccccc1N/C=C/C(=O)c1cccs1	i	-2.6
Cc1ccsc1/C=N/NC(=O)CC(=O)NCC(C)C	i	0.01
Cc1ccnc(NC(=O)c2ccc(S(=O)(=O)NCc3ccco3)cc2)c1	i	-0.17
Cc1nnc(NC(=O)c2ccc(Br)cc2)s1	i	-2.7
O=C(Cn1ncc(Cl)c(Cl)c1=O)N1CCc2ccccc21	i	-0.26
COc1ccccc1NC(=O)NCc1nc(-c2ccc(C(F)(F)F)cc2)no1	i	0.55
COC(=O)c1cc2ccsc2n1Cc1nc(-c2ccc(OC)cc2)oc1C	i	0.15
CNc1ccc(Br)cc(C(=O)/C=C/c2ccc(OC)cc2)c1=O	i	-0.25
CSc1ncc(C(=O)Nc2cccc(Cl)c2)c(C)n1	i	-0.37
COc1ccc2nc(/N=C/c3cccc(OC)c3O)sc2c1	i	1.9
COc1ccccc1NC(=S)N1CCN(c2ccccn2)CC1	i	-0.03
COc1cccc(CNC(=O)c2cc(C)nc3ccccc23)c1	i	0.04
CSc1ccc(/C=C(\C#N)C(=O)NC2CCCCC2)cc1	i	-0.01
CN=C(C)/C(C(=O)OC)=C(/O)c1ccccc1F	i	-1.6
CC(C)c1ccc(/C=C2\SC(=S)N(CCC(=O)NCCCn3ccnc3)C2=O)cc1	i	0.24
CCOC(=O)n1c(SCC(N)=O)nc2ccccc21	i	3.6
Cc1cc(Cl)ccc1NC(=O)C1CCCN1C(=O)c1cccs1 (stereo not drawn)	i	0.1
COc1ccc(C(=O)Oc2cc(/C=N/NC(N)=S)ccc2OC)cc1	i	0.68
Cc1nc2cc(NCc3ccc(Cl)cc3)ccc2n1C	i	0.89
O=C1CCC/C(=N\NC(=O)c2ccc(NS(=O)(=O)c3ccc(Br)cc3)cc2)C1	i	-0.66
O=c1c2cc(NC(=S)N3CCCCCC3)ccc2nc2n1CCCCC2	i	-1.2
Cc1ccc2cc(C)c(NCCO)nc2c1	i	0.19
COc1ccccc1C(=O)Nn1c(-c2cccs2)nc2ccccc2c1=O	i	-0.03
Cc1cccc(OCC(=O)N2CCCc3ccccc32)c1	i	0.88
CCOC(=O)/C(=N\Nc1ccccc1[N+](=O)[O-])c1csc(Nc2ccccc2)n1	i	-0.96
COc1cccc(C(=O)NCCC(=O)NCc2cc(=O)n(C)c(=O)n2C)c1	i	2
CCCCN(C)CCNC(=O)CSCc1ccc(C)cc1	i	1.2
COc1ccc(C(C(=O)NC(C)(C)C)N(CCC(C)C)C(=O)CCC(=O)Nc2cc(C)on2)cc1 (stereo not drawn)	i	0.01
c1nnc(-c2ccc3c(c2)OCO3)o1	i	0.69
Cc1cccc(C)c1-n1nnnc1C1(Nc2ccccc2)CCCCC1	i	0.41
Cc1c(NC(=O)C(C)OC(=O)c2ccc(Cl)nc2)c(=O)n(-c2ccccc2)n1C (stereo not drawn)	i	-0.01
CCCCSc1nnc([C@H](C)NC(=O)OC(C)(C)C)o1	i	-1.7

# 2 entries drawn at random from the list so far, as already listed:
Molecule	KCNQ2 block	KCNQ2 block baseline
CCCCN(C)CCNC(=O)CSCc1ccc(C)cc1	i	1.2
Cc1c(NC(=O)C(C)OC(=O)c2ccc(Cl)nc2)c(=O)n(-c2ccccc2)n1C (stereo not drawn)	i	-0.01

# New compounds follow:
Molecule	KCNQ2 block	KCNQ2 block baseline
O=C1CS/C(=C\S(=O)(=O)c2ccc(Cl)cc2)N1	i	-0.32
O=C(CCc1nnc2ccc(N3CCC4(CC3)OCCO4)nn12)NCc1ccc(F)cc1	i	-0.01
COC(=O)c1c(NC(=O)CSc2nnnn2-c2ccccc2)sc2c1CCC(C)C2 (stereo not drawn)	i	1.5
O=C(/N=C1\NC(=O)C(F)(C(F)(F)F)S1)NC1CCCCC1 (stereo not drawn)	i	0.6
C=CCNC(=O)COC(=O)c1cccnc1Nc1ccccc1F	i	1.1
COC(=O)c1c(C)[nH]c(C(=O)/C=C/c2ccc(Cl)cc2)c1C	i	-0.99
COc1cc(CCC(=O)NNC(=O)c2ccc(C)cc2)cc(OC)c1OC	i	0.87
Cc1ccc(-n2c(-c3cnccn3)n[nH]c2=S)cc1	i	1.7
CCCCCNC(=O)C1CCC(Cn2c(=S)[nH]c3ccccc3c2=O)CC1 (stereo not drawn)	i	9.1
CSc1nnc2c(n1)OC(c1cn(C)c3ccccc13)N(C(C)=O)c1ccccc1-2 (stereo not drawn)	i	0.07
Cc1ccn(CC(=O)O)c(=O)c1	i	0.82
Cc1ccc(CNC(=O)CN(c2ccc(C(C)C)cc2)S(=O)(=O)c2c(C)noc2C)cc1	i	-0.71
CCN(CC)CC(=O)NCC1(c2ccccc2)CCCC1	i	0.86
Cc1ccccc1CNC(=O)CN(c1cccc([N+](=O)[O-])c1)S(C)(=O)=O	i	-0.13
FC(F)Oc1ccccc1NC(=S)NCCc1ccccc1	i	3
COc1ccc(Cl)cc1-c1nc(SCC(=O)N(C)CCC#N)n[nH]1	i	-0.39
Cc1cccc(Nc2nn3c(=O)c4ccccc4nc3s2)c1	i	0.6
Cn1c2ccccc2c(=O)c2ccc(-c3ccc4c(c3)OCO4)cc21	i	0.39
O=C(NCC1CCCO1)/C(=C\c1ccc(Cl)cc1)NC(=O)c1ccccc1 (stereo not drawn)	i	-0.01
COc1cc(/C=N/NC(N)=S)ccc1OCc1ccc(C)cc1	i	-0.75
O=C(c1cc2cc(F)ccc2[nH]1)N1CCN(c2cccc(Cl)c2)CC1	i	0.1
CC1=NN(c2ccccc2)C(=O)C1C(=O)C(=O)Nc1ccc(F)cc1 (stereo not drawn)	i	-0.57
O=C(c1ccccc1)N1N=C(c2ccccc2O)CC1c1ccc(Br)cc1 (stereo not drawn)	i	-3
CCCC(=O)N1CC2(C)CN(C(=O)CCC)CC(CCC)(C1)C2=O	i	0.03
CCc1ccc(NC(=O)Nc2cccc(OC)c2)cc1	i	-0.01
CC(=O)c1c(C)nc2ccc(Cl)cn12	i	0.09
O=C(NCC1CCCN1S(=O)(=O)c1cccs1)c1ccccc1F (stereo not drawn)	i	-0.43
Cc1c(CN2CC[C@@H](N3CCN(c4ccccn4)CC3)[C@H](O)C2)[nH]c2ccc(F)cc12	i	0.7
COc1cccc(CN2CCNC(=O)C2CC(=O)N(C)CCC2CCOCC2)c1OC (stereo not drawn)	i	0.15
Cc1ccc(S(=O)(=O)c2cc3cc(Br)ccc3oc2=O)cc1	i	1.3
CCC(c1nc2ccccc2c(=O)n1CCCn1ccnc1)N1C(=O)c2ccccc2C1=O (stereo not drawn)	i	4.3
Cc1cc(C)cc(NC(=O)C2CCN(C(=O)c3cccs3)CC2)c1	i	2
O=C1CC(SC(=NCc2ccc3c(c2)OCO3)Nc2ccccc2)C(=O)N1 (stereo not drawn)	i	0.2
O=c1c2ccccc2c(C=NCc2ccccn2)c(O)n1-c1ccccc1Cl	i	-0.09
COc1cc(/C=N/Nc2ccc(Cl)c(C(=O)O)c2)ccc1OC(=O)c1ccc(F)cc1	i	0.15
CS(=O)(=O)N1CCC(Oc2ccccc2C(=O)NC2CCCCCC2)CC1	i	1.1
COc1ccccc1CNC(=S)Nc1ccc(S(N)(=O)=O)cc1	i	0.93
O=C(Oc1ccccc1O)c1cccc2ccccc12	i	0.83
CCN1CCN(C(=O)C(=O)c2c(C)[nH]c3ccccc23)CC1	i	-0.14
Cc1nc(N2CCC(C)CC2)c2c(C)c(C(=O)Nc3ccc4c(c3)OCCO4)sc2n1	i	1.8
Cn1c(Cn2c(=O)sc3ccccc32)nnc1SCC(=O)Nc1ccc2c(c1)OCO2	i	-2
CCN(CC)S(=O)(=O)c1cccc(C(=O)Nc2ccc(C#N)cc2)c1	i	0.69
COc1ccc(OC)c(CCNC(=O)c2ccc(CS(=O)(=O)c3ccc(Br)cc3)o2)c1	i	1.6
O=C(CCNS(=O)(=O)c1ccc2c(c1)CCC(=O)N2)NCc1cccnc1	i	0.29
c1ccc(CSc2nnc(-c3ccccc3)c(-c3ccccc3)n2)cc1	i	-2
Cc1ccc(C(=O)Cn2c(N3CCOCC3)nc3c2c(=O)n(C)c(=O)n3C)cc1	i	-0.38
O=c1c(C(c2ccc(O)cc2)c2c(O)nc3n(c2=O)CCS3)c(O)nc2n1CCS2	i	1.9
Cc1cccc2sc(N3CCN(C(=O)C4COc5ccccc5O4)CC3)nc12 (stereo not drawn)	i	-0.57
COc1ccc(C(=O)Oc2ccc(/C=N/Nc3ccc(Cl)c(C(=O)O)c3)cc2OC)cc1	i	-0.75
CN(C)c1ccc(/C=N/NC(=S)NCc2ccco2)cc1	i	0.49
O=C(Nc1nc2ccc(S(=O)(=O)N3CCCC3)cc2s1)c1ccccn1	i	0.1
CCOC(=O)c1oc2cc(O)ccc2c(=O)c1-c1ccc(OC)cc1	i	-0.01
O=C(Nc1cccc2c1CCCC2)c1cc([N+](=O)[O-])cc([N+](=O)[O-])c1	i	-0.01
COc1cc(/C=C/c2sc3ccccc3[n+]2CCCS(=O)(=O)[O-])ccc1O	i	20
Cc1ccc(C)c(NC(=O)c2nnn(Cc3ccccc3)c2N)c1	i	-0.02
O=C(N/N=C/c1ccc(Cl)cc1)C(=O)N1CCCCCC1	i	-1.1
CCOC(=O)N1CCN(c2nc(-c3ccccc3)c3cc(C)ccc3n2)CC1	i	-0.17
